Screening results from PubChem.
LANA-H2A inh: blocks KSHV LANA binding to histone H2A/H2B; inhibition, % (concentration not given with the values); cell-free LANA-H2A/H2B peptide, fluorescence polarization; 320,000 compounds, 0.6% hits; AID 2629; Q9QR71; in the data active means inhibition mostly above about 10%, no sharp cut-off; inactive means mostly below about 6.7%;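 further: stock transfer was 7.5 nL into about 10 µL; 0% = median of vehicle wells and 100% = median of positive control wells; one replicate is shown; the record names a cut of 25% in any replicate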
Beta apoptosis: blocks beta cell apoptosis. INS-1E cytokine-induced death, ATP luminescence, 48 h; percent of positive-control rescue, neutral wells zero. protection from apoptosis, % (no concentration beside the values). 300,000 compounds, 0.8% hits. AID 435005;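 active means all replicates at 75% or more, or half of them and the mean; inconclusive means half reach 75% but not the mean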;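 further: 0% = cytokine-treated negative control wells and 100% = positive control rescue; higher means more ATP so stronger rescue from cytokine killing; wells of about 40 µL received 100 nL stock; the first replicate is given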
Vif TR-FRET: inhibitors of Vif binding to APOBEC3G peptide, primary screen, biochemical, TR-FRET, GST-Vif 1-94, biotin-A3G peptide, dose response retest (AID 1117319); one-dose inhibition, %; IC50 in µM for titrated hits; 260,000 compounds, 0.57% hits; TR-FRET GST-Vif / biotin-A3G peptide binding; higher % means a stronger effect; test concentration not given here; strong numbers were not always called active;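 active means above the screen mean plus three standard deviations and confirmed in dose response; inconclusive means results disagree or hit not tested in dose response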;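 further: Vif residues 1-94 fused to GST binding biotinylated APOBEC3G peptide 110-148; 0% = full assay without inhibitor and 100% = GST in place of GST-Vif; retest series ran down from 100 µM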
RanGTP-Imp inh: inhibitors of RanGTP-importin-beta interaction, primary screen, biochemical, FRET, CFP-Ran, YFP-importin-beta, homogeneous; AID 2216; cell-free CFP-Ran/YFP-importin-beta FRET ratio; inhibition, % (no concentration beside the values); 300,000 compounds, 1.1% hits;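 active means most replicates above 15%; inconclusive means exactly half above 15%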;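 further: 0% = DMSO wells and 100% = Ran loaded with GDP instead of GTP; wells of about 40 µL received 100 nL stock; the first replicate is given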
Calb FLC: affects C. albicans growth with fluconazole. growth inhibition, % (test concentration not listed). C. albicans CaCi-2 (fluconazole-resistant clinical isolate) + fluconazole, Alamar Blue growth, 48 h. 300,000 compounds, 0.57% hits;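 active means most replicates above 75%; inconclusive means exactly half above 75%; inactive means most below 75%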;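 further: all wells also contain fluconazole at 8 µg/ml as a sub-toxic cotreatment; 0% = median of DMSO wells and 100% = median of geldanamycin control wells; wells of about 8 µL received 7.5 nL stock; the first replicate is given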
MLL AF4-AF9 inh: blocks AF4 peptide binding to human AF9. P42568. AlphaScreen, biotin-AF4 peptide binding to FLAG-AF9. inhibition, % at 10 µM. 350,000 compounds, 0.47% hits. AID 651704;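 active means every replicate reaching a set inhibition limit, whatever the replicate mean, cut at about 25% in these data; inconclusive means mean inhibition reaches that limit but some replicates miss it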;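 further: 0% = plate neutral control median and 100% = total signal loss; the record names both 10 and 1 µM as test concentration; the first replicate is given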
Target sequence (P42568 whole entry, looked up): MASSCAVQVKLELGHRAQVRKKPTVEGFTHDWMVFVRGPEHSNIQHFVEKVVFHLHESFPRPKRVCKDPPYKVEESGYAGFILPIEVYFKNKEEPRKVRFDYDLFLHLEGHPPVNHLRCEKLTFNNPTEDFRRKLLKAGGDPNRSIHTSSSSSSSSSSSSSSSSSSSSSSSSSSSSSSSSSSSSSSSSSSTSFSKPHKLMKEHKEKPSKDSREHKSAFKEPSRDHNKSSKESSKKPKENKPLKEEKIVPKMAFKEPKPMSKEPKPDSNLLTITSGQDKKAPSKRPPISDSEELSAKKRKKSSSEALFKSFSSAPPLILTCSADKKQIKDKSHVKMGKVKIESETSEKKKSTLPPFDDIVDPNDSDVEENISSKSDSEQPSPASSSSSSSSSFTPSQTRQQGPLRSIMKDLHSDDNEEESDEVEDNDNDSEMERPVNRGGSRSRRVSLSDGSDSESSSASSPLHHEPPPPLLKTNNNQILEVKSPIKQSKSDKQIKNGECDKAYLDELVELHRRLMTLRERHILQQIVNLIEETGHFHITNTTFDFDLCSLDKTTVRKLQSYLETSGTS
T cruzi repl: blocks replication of Trypanosoma cruzi. T. cruzi beta-gal in NIH3T3, luminescence, 90 h. inhibition, % (test concentration not listed). 300,000 compounds, 1.4% hits;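 active means mean inhibition across valid replicates above about 55%, limit read from the data; inconclusive means mean below that limit but half or more replicates reach it; inactive means mean below it, under half of replicates reach it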;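 further: signal also drops with host cell toxicity which is not excluded here; 0% = plate median of DMSO wells and 100% = zero luminescence signal; higher percent means less beta-gal luminescence so fewer parasites; stock transfer was 50 nL into about 50 µL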
Bfl-1 A1 inh: inhibitors of the anti-apoptotic protein A1, read as caspase activation; MEF A1-2A-BIM cells, Caspase-Glo 3/7 luminescence, 3 h; percent of clofoctol response, vehicle zero; caspase activation, % (test concentration not listed); 330,000 compounds, 0.066% hits;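 active means over half of replicate activation scores above 10%, or exactly half above 10 with the replicate mean above 10; inconclusive means replicate mean below 10 yet half the replicates above 10; inactive means over half of replicates below 10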;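 further: wells of about 30 µL received 50 nL stock; many hits fall short of the cut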
Numbers without * were called inactive; & = joins results of further samples.

`C=CCNS(=O)(=O)c1ccc(C(=O)OCc2cc(=O)oc3cc(OC)ccc23)cc1` gave LANA-H2A inh 1.8, Beta apoptosis 4, Vif TR-FRET -8%, RanGTP-Imp inh -2.7, Calb FLC 1, MLL AF4-AF9 inh -1.8, T cruzi repl 9 and Bfl-1 A1 inh 0.0.
Screening N#Cc1ccc(CN2CCN(C(=O)c3cc(Cl)c4c(c3)OCCO4)CC2)cc1 returned LANA-H2A inh 0.8, Beta apoptosis 10, Vif TR-FRET -8%, MLL AF4-AF9 inh -1.3 and Bfl-1 A1 inh -0.5.
CCOC(=O)CNC(=O)Nc1cccc(Cl)c1C was read as LANA-H2A inh 2.2, Beta apoptosis 3, Vif TR-FRET -4%, RanGTP-Imp inh 2.6, Calb FLC -3, T cruzi repl -5 and Bfl-1 A1 inh 0.4.
`CC1CCCC(C)N1C(=O)COC(=O)c1cc([N+](=O)[O-])ccc1N1CCOCC1` (stereo not drawn) gave LANA-H2A inh -1.3, Beta apoptosis 3, RanGTP-Imp inh 7.1, Calb FLC -9, MLL AF4-AF9 inh 1.6, T cruzi repl -6 and Bfl-1 A1 inh -0.1.
Screening C=CCNC(=O)COC(=O)COc1ccc(Cl)cc1 returned LANA-H2A inh 3.4, Beta apoptosis -8, Vif TR-FRET -2%, RanGTP-Imp inh 0.8, Calb FLC -1, MLL AF4-AF9 inh -1.5, T cruzi repl -9 and Bfl-1 A1 inh -0.2.
`COc1ccc(CCC(=O)Nc2cc3c4c(c2)CC(=O)N4CCC3)cc1` gave LANA-H2A inh -8.2, Beta apoptosis 2, Vif TR-FRET -8%, RanGTP-Imp inh 8.9, Calb FLC 5, MLL AF4-AF9 inh -3.2, T cruzi repl 10 and Bfl-1 A1 inh 0.2.
For O=c1c2c(-c3cccc([N+](=O)[O-])c3)ccnc2[nH]n1-c1ccccc1 the results were LANA-H2A inh -2.0, Beta apoptosis -1, Vif TR-FRET 6%, RanGTP-Imp inh 2.4, Calb FLC 32, MLL AF4-AF9 inh -0.9, T cruzi repl 5 and Bfl-1 A1 inh -3.1.
Screening COc1ccc(C(=O)NC(=S)Nc2cccc(Cl)c2N2CCOCC2)cc1[N+](=O)[O-] returned LANA-H2A inh -3.3, Beta apoptosis 3, Vif TR-FRET 21%, RanGTP-Imp inh -1.4, Calb FLC -21, T cruzi repl 35 and Bfl-1 A1 inh -0.7.
`CC(C)C(C(=O)NCC1CCCO1)N(C(=O)CNS(=O)(=O)c1ccc(F)cc1)C1CCCCC1` (stereo not drawn) gave LANA-H2A inh -5.4, Beta apoptosis -7, RanGTP-Imp inh 3.5, Calb FLC -6, MLL AF4-AF9 inh 0.3, T cruzi repl 8 and Bfl-1 A1 inh 0.4.
`Cc1ccccc1NC(=S)N(CCN1CCCCC1)Cc1ccco1` gave LANA-H2A inh -1.8, Beta apoptosis -2, RanGTP-Imp inh -1.8, Calb FLC 8, MLL AF4-AF9 inh -4.3, T cruzi repl -10 and Bfl-1 A1 inh 0.1.
Screening CCOC(=O)c1ccc(-c2c(-c3ccc(OC)cc3)oc(=O)c3cc(OC)c(OC)cc23)cc1F returned LANA-H2A inh -1.9, Beta apoptosis -4, MLL AF4-AF9 inh 4.3 and Bfl-1 A1 inh -0.3.
For Cc1ccc(NC(=O)CSc2nnc(CNC(=O)c3ccco3)o2)cc1Cl the results were LANA-H2A inh -5.9, Beta apoptosis -4, RanGTP-Imp inh 0.1, Calb FLC 24, MLL AF4-AF9 inh -1.2, T cruzi repl -1 and Bfl-1 A1 inh 0.6.
`CC(C)=CCN1CCN(CCCc2ccccc2)CC1CCO` (stereo not drawn) gave LANA-H2A inh -1.3, Beta apoptosis -2, RanGTP-Imp inh 0.1, Calb FLC -5, MLL AF4-AF9 inh -0.9, T cruzi repl 6 and Bfl-1 A1 inh -0.2.
`Cc1cc(C)c2nc(N3CCCC(C(=O)NCCN4CCOCC4)C3)sc2c1` (stereo not drawn) gave LANA-H2A inh -5.4, Beta apoptosis 3, Vif TR-FRET -5%, RanGTP-Imp inh -2.8, Calb FLC -13, MLL AF4-AF9 inh 1.0, T cruzi repl 4 and Bfl-1 A1 inh -0.3.
`COc1ccc(C(=O)NC2CCSC2=O)cc1` (stereo not drawn) gave LANA-H2A inh 2.5, Beta apoptosis -10, Vif TR-FRET 5%, RanGTP-Imp inh 1.5, Calb FLC -2, T cruzi repl -29 and Bfl-1 A1 inh -0.1.
For CCOc1cc(/C=C2/C(=N)N3N=C(C)SC3=NC2=O)ccc1OS(=O)(=O)c1ccc(C)cc1 the results were LANA-H2A inh -1.5, Beta apoptosis -2, RanGTP-Imp inh -0.7, Calb FLC 5, MLL AF4-AF9 inh -7.1, T cruzi repl -1 and Bfl-1 A1 inh 0.8.
Cc1cc[n+](CC(=O)Nc2ccccc2)cc1 was read as LANA-H2A inh 0.7, RanGTP-Imp inh 5.8, Calb FLC 1, MLL AF4-AF9 inh -2.2, T cruzi repl 11 and Bfl-1 A1 inh 0.2.
CN1N=C(C(=O)N2CCc3c([nH]c4ccccc34)C2c2ccccc2Cl)CCC1=O (stereo not drawn) was read as LANA-H2A inh 2.2, Beta apoptosis 13, Vif TR-FRET 0%, RanGTP-Imp inh -0.5, Calb FLC -3, MLL AF4-AF9 inh 2.3, T cruzi repl -2 and Bfl-1 A1 inh 1.0.
`CCCCCCN1C2=NCCN2c2ccccc21` gave LANA-H2A inh -2.1, Vif TR-FRET -4%, RanGTP-Imp inh -5.1, Calb FLC inconclusive, T cruzi repl 39 and Bfl-1 A1 inh 0.8.
`Cc1n[nH]c(C)c1Cc1c(F)cccc1Cl` gave LANA-H2A inh 1.2, Vif TR-FRET -10%, RanGTP-Imp inh -0.6, Calb FLC -3, T cruzi repl 7 and Bfl-1 A1 inh 0.2.
Screening CCOC(=O)c1sc(N)c(C(=O)OCC)c1COC(=O)C1CC(=O)N(Cc2ccco2)C1 (stereo not drawn) returned LANA-H2A inh 5.3, Beta apoptosis -5, Vif TR-FRET 9%&-1%, RanGTP-Imp inh 6.7, Calb FLC 33, T cruzi repl 22 and Bfl-1 A1 inh -1.3.
Screening CCCC1CCc2c(sc(N)c2C(N)=O)C1 (stereo not drawn) returned LANA-H2A inh 2.4, Beta apoptosis 0, Vif TR-FRET 15%, RanGTP-Imp inh 4.0, Calb FLC 2, T cruzi repl 13 and Bfl-1 A1 inh 0.3.
c1ccc(CC2CCN(C(c3cccs3)c3nnnn3C3CCCC3)CC2)cc1 (stereo not drawn) was read as LANA-H2A inh 1.9, Beta apoptosis 33, Vif TR-FRET -2%, RanGTP-Imp inh -2.6, Calb FLC 2, T cruzi repl 6 and Bfl-1 A1 inh 0.3.
COc1cc(C(=O)O[C@H]2C/C(C)=C/CC[C@]3(C)O[C@@H]3C(O)C2C(C)C)cc(OC)c1OC (stereo partly drawn) was read as LANA-H2A inh 1.6, Beta apoptosis 14, Vif TR-FRET -3%, RanGTP-Imp inh -1.7, Calb FLC 9, MLL AF4-AF9 inh 4.6, T cruzi repl 27 and Bfl-1 A1 inh -1.5.
`Cc1ccc(C)c(OCC(=O)Nc2ccccc2C(=O)N2CCOCC2)c1` gave LANA-H2A inh -2.2, Beta apoptosis -12, RanGTP-Imp inh -4.1, Calb FLC 5, MLL AF4-AF9 inh -1.5, T cruzi repl 4 and Bfl-1 A1 inh 0.6.
Screening OCC[C@@H]1C[C@H](O)[C@@H](O)[C@@]2(CCCO2)O1 returned LANA-H2A inh 1.1, Beta apoptosis -2, RanGTP-Imp inh -0.5, Calb FLC -2, MLL AF4-AF9 inh -1.6, T cruzi repl -10 and Bfl-1 A1 inh 0.7.
For C=C(C)C(=O)N1CC2(CC(c3cccc(NC(=O)COc4ccc(Cl)cc4)c3)=NO2)C[C@@H]1C(N)=O (stereo partly drawn) the results were LANA-H2A inh -5.5, Beta apoptosis 104*, Vif TR-FRET -2%, RanGTP-Imp inh 4.6, Calb FLC -10, MLL AF4-AF9 inh 0.2, T cruzi repl -6 and Bfl-1 A1 inh -0.7.
`Cc1ccc(NC(=O)c2oc3ccccc3c2NC(=O)C2CC2)cc1` gave LANA-H2A inh 5.3, Beta apoptosis 0, Vif TR-FRET -1%, RanGTP-Imp inh 3.2, Calb FLC 6, MLL AF4-AF9 inh -2.3, T cruzi repl 8 and Bfl-1 A1 inh -0.4.
COC(=O)c1c(NC(=O)c2ccccc2OC)sc(C(=O)N2CCOCC2)c1C was read as LANA-H2A inh 6.6, Beta apoptosis 6, RanGTP-Imp inh -0.8, Calb FLC -6, MLL AF4-AF9 inh 0.8, T cruzi repl -1 and Bfl-1 A1 inh -0.3.
Screening O=C(CN1C(=O)NC2(CCCC2)C1=O)Nc1nc(-c2ccc(F)c(F)c2)cs1 returned LANA-H2A inh -3.1, Beta apoptosis 1, Vif TR-FRET -13%, MLL AF4-AF9 inh -1.4 and Bfl-1 A1 inh 0.5.
For CCOc1ccc(NC(=O)CCN2CCN(S(=O)(=O)c3ccc(F)cc3)CC2)cc1 the results were LANA-H2A inh -0.6, Beta apoptosis -6, Vif TR-FRET 23%, RanGTP-Imp inh 0.3, Calb FLC 29, MLL AF4-AF9 inh 2.1, T cruzi repl 6 and Bfl-1 A1 inh 0.7.
Cc1cc(NS(=O)(=O)c2ccc(NC(=O)COc3ccccc3[N+](=O)[O-])cc2)no1 was read as LANA-H2A inh 0.4, Beta apoptosis -4, RanGTP-Imp inh -4.1, Calb FLC -18, MLL AF4-AF9 inh -5.4, T cruzi repl 1 and Bfl-1 A1 inh 0.9.
`CCn1c(NCCCO)nc2c(c1=O)C(C)(CC)Cc1ccccc1-2` (stereo not drawn) gave LANA-H2A inh 1.4, RanGTP-Imp inh 2.0, Calb FLC -10, MLL AF4-AF9 inh 6.2, T cruzi repl 6 and Bfl-1 A1 inh -1.3.
Screening C/C(=N/NC(=O)CNC(=O)/C=C/c1ccco1)c1ccc(Cl)cc1 returned LANA-H2A inh -6.0, Vif TR-FRET 20%, RanGTP-Imp inh 5.6, Calb FLC 0, MLL AF4-AF9 inh -1.3, T cruzi repl -29 and Bfl-1 A1 inh 0.1.
Screening CC(C)c1ccc(NC(=O)c2ccc3c(c2)CCN3S(C)(=O)=O)cc1 returned LANA-H2A inh -1.0, Beta apoptosis 13, Vif TR-FRET -2%, RanGTP-Imp inh 2.9, Calb FLC -6, MLL AF4-AF9 inh -3.4, T cruzi repl 9 and Bfl-1 A1 inh 0.0.
CCCN1C(=O)c2cc(C(=O)Nc3ccc(OC)c(OC)c3)ccc2C1Nc1ccc(OC)c(OC)c1 (stereo not drawn) was read as LANA-H2A inh -8.0, Beta apoptosis -2, Vif TR-FRET 3%, RanGTP-Imp inh 3.9, Calb FLC -7, MLL AF4-AF9 inh -0.2, T cruzi repl 3 and Bfl-1 A1 inh 0.5.
Screening Cc1sc(NC(=O)Cn2c(=O)oc3ccccc32)nc1-c1ccc(Cl)cc1 returned LANA-H2A inh 2.2, Beta apoptosis -1, RanGTP-Imp inh -1.6, Calb FLC -29, MLL AF4-AF9 inh 0.0, T cruzi repl 19 and Bfl-1 A1 inh -0.9.
